NPYLR7 agonist = agonists of mosquito NPYLR7 receptor, primary screen, cell-based, Aedes aegypti, calcium fluorescence, mosquito biting behavior. HEK293T NPYLR7/Galpha15, GCaMP6s calcium fluorescence. Aedes aegypti neuropeptide Y-like receptor 7 (NPYLR7). activation, % at 10 µM. 270,000 tested, 0.15% active. AID 1259423, 2018; in the data active means activation above about 40%;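 further: 0% = vehicle and 100% = reference agonist at the receptor; some compounds past the cut are filed as inactive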
NPYLR7 agonist max-min = further read-out of NPYLR7 agonist, marked with its call; activation, %; measured here: Max-Min RFU normalised activation; some inactives read as strong as hits;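 span of the calcium signal over five minutes; 0% = vehicle and 100% = native peptide agonist; compound fluorescence can raise it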
Numbers without * were called inactive. The list is partial, so the mix of outcomes need not match the whole.

`Fc1ccc(CN(Cc2nccs2)C2CC2)c(F)c1` gave NPYLR7 agonist 5.1 and NPYLR7 agonist max-min 4.2.
For Cc1ccc(C(=O)NCCn2nc(-c3ccc(F)cc3)ccc2=O)cc1C the results were NPYLR7 agonist -9.4 and NPYLR7 agonist max-min -3.2.
CCOC(=O)c1c(NC(=O)c2cccc([N+](=O)[O-])c2)sc2c1CCCC2 was read as NPYLR7 agonist -6.2 and NPYLR7 agonist max-min -9.9.
Screening Cc1ccc(N=Cc2c(NCc3ccco3)nc3c(C)cccn3c2=O)cc1 returned NPYLR7 agonist 0.0 and NPYLR7 agonist max-min -1.8.
CN1CCC2(CCC1=O)CCN(C(=O)c1cnc(-c3cccnc3)nc1)CC2 was read as NPYLR7 agonist 0.5 and NPYLR7 agonist max-min -2.1.
`CC(=O)N1N=C(c2ccccc2)OC1C(=O)N1CCC(N(C)C)CC1` (stereo unspecified) gave NPYLR7 agonist -1.1 and NPYLR7 agonist max-min 7.2.
CCC(C(=O)NC1CCCC1)n1nc(C)n2c(cc3occc32)c1=O (stereo unspecified) was read as NPYLR7 agonist -9.7 and NPYLR7 agonist max-min -7.5.
For Cc1nc(C)c(C(=O)N2C[C@H]3OC(=O)N(CCc4ccccn4)[C@H]3C2)s1 the results were NPYLR7 agonist 4.4 and NPYLR7 agonist max-min 4.8.
CCn1ccnc1CN1CCN(C2Cc3ccccc3C2)CC1 was read as NPYLR7 agonist 17.3 and NPYLR7 agonist max-min 5.2.
For Cn1c(=NC(=O)C2=COCCO2)sc2ccccc21 the results were NPYLR7 agonist 1.5 and NPYLR7 agonist max-min -2.7.

Looked up by structure from above (2):
CCOC(=O)c1c(NC(=O)c2cccc([N+](=O)[O-])c2)sc2c1CCCC2 was read as NPYLR7 agonist -6.2 and NPYLR7 agonist max-min -9.9.
`Fc1ccc(CN(Cc2nccs2)C2CC2)c(F)c1` gave NPYLR7 agonist 5.1 and NPYLR7 agonist max-min 4.2.

(continued)
`Cc1c(N=CC=Cc2ccccc2)c(=O)n(-c2ccccc2)n1C` gave NPYLR7 agonist 7.0 and NPYLR7 agonist max-min 0.7.
Screening COc1ccc(-c2nc(CN(Cc3ccccc3)CC3CC3)c(C)o2)c(OC)c1C returned NPYLR7 agonist 0.5 and NPYLR7 agonist max-min 3.4.
Oc1ccc(C=Nc2ccc3oc4ccccc4c3c2)c(O)c1O was read as NPYLR7 agonist -4.4 and NPYLR7 agonist max-min -13.2.
Cc1ccc(N2C(=O)/C(=C/c3ccc(Br)cc3)C=C2c2ccccc2)c(C)c1 was read as NPYLR7 agonist 18.5 and NPYLR7 agonist max-min 26.7.
O=C(CCOc1ccc(F)cc1)N1CCC2(CCc3ccccc32)C1 (stereo unspecified) was read as NPYLR7 agonist 7.6 and NPYLR7 agonist max-min 8.2.
For COc1ccccc1NC(=O)Cn1cnc2c([nH]c3ccc(C)cc32)c1=O the results were NPYLR7 agonist 1.5 and NPYLR7 agonist max-min -2.9.
Screening Cn1c(CNCC(C)(C)NC(=O)OC(C)(C)C)nc2ccccc21 returned NPYLR7 agonist 0.4 and NPYLR7 agonist max-min -1.4.
CCOc1ccccc1OCCCOc1ccccc1C(C)=O was read as NPYLR7 agonist -7.6 and NPYLR7 agonist max-min 2.5.
Screening O=C(C(=O)N1CC(=O)N2CCc3c(F)cccc3C2C1)c1c[nH]c2ccccc12 (stereo unspecified) returned NPYLR7 agonist 2.5 and NPYLR7 agonist max-min 3.8.
Screening N#Cc1ccc(O[C@@H]2C=C(C(=O)NCCC(N)=O)C[C@@H](OC(=O)Nc3ccccc3)[C@H]2OC(=O)Nc2ccccc2)c(Br)c1 returned NPYLR7 agonist -9.9 and NPYLR7 agonist max-min -18.2.

Among those listed so far, these have bromine:
Cc1ccc(N2C(=O)/C(=C/c3ccc(Br)cc3)C=C2c2ccccc2)c(C)c1 was read as NPYLR7 agonist 18.5 and NPYLR7 agonist max-min 26.7.
Screening N#Cc1ccc(O[C@@H]2C=C(C(=O)NCCC(N)=O)C[C@@H](OC(=O)Nc3ccccc3)[C@H]2OC(=O)Nc2ccccc2)c(Br)c1 returned NPYLR7 agonist -9.9 and NPYLR7 agonist max-min -18.2.

Later entries.
For COc1cc(NC(=O)CCC2CCCN(C(=O)CCN3CCCCO3)C2)cc(OC)c1 (stereo unspecified) the results were NPYLR7 agonist 10.6 and NPYLR7 agonist max-min 1.1.
For COCCn1nc(C)c(NC(=O)C(=O)Nc2cccc(C(C)C)c2)c1C the results were NPYLR7 agonist 0.9 and NPYLR7 agonist max-min 1.2.
`CCCOCCNC(=O)c1cc(N2CCSCC2)nc2ccccc12` gave NPYLR7 agonist 4.2 and NPYLR7 agonist max-min -2.1.
`CC(C)S(=O)(=O)C(C)C(=O)NCc1cc(Br)c2c(c1)OCCO2` (stereo unspecified) gave NPYLR7 agonist 0.9 and NPYLR7 agonist max-min 0.4.
Screening CCCCC1C(=O)N(C)CCN1C(=O)c1ccccc1NCC(=O)O (stereo unspecified) returned NPYLR7 agonist 3.9 and NPYLR7 agonist max-min 5.8.
`CN(C)CCN(C(=O)CCc1ccccc1)c1nc2cc3c(cc2s1)OCO3` gave NPYLR7 agonist -3.7 and NPYLR7 agonist max-min -3.1.
For COc1cccc(CCC2CCCN(C(=O)c3cscn3)C2)c1 (stereo unspecified) the results were NPYLR7 agonist 6.4 and NPYLR7 agonist max-min 0.7.
`Cc1csc(N2CCCN(CCC(=O)Nc3cccc4ccccc34)CC2)n1` gave NPYLR7 agonist 5.3 and NPYLR7 agonist max-min 3.5.
`COc1ccc(OC)c(S(=O)(=O)NC(=O)C2(C)CCN2C(=O)C(C)(C)c2ccccc2)c1` (stereo unspecified) gave NPYLR7 agonist -1.9 and NPYLR7 agonist max-min -7.4.
`CCC(NCc1c(C(=O)N2CCOCC2)nc2ccccn12)c1ccncc1` (stereo unspecified) gave NPYLR7 agonist 5.9 and NPYLR7 agonist max-min 6.8.

Ordered by heavy-atom count (rising): three of the compounds above.
For COCCn1nc(C)c(NC(=O)C(=O)Nc2cccc(C(C)C)c2)c1C the results were NPYLR7 agonist 0.9 and NPYLR7 agonist max-min 1.2.
`CCC(NCc1c(C(=O)N2CCOCC2)nc2ccccn12)c1ccncc1` (stereo unspecified) gave NPYLR7 agonist 5.9 and NPYLR7 agonist max-min 6.8.
For COc1cc(NC(=O)CCC2CCCN(C(=O)CCN3CCCCO3)C2)cc(OC)c1 (stereo unspecified) the results were NPYLR7 agonist 10.6 and NPYLR7 agonist max-min 1.1.

(listing goes on)
Screening C=CCC(O)(c1ccc(Cl)cc1)c1nccn1COC (stereo unspecified) returned NPYLR7 agonist -6.3 and NPYLR7 agonist max-min -8.4.
CN(Cc1cc(C2CC2)n[nH]1)C(=O)c1cnn2ccn(C)c12 was read as NPYLR7 agonist 5.6 and NPYLR7 agonist max-min 2.0.
For CCc1cc(Oc2ccc3c(c2)OCO3)nc(SCc2cccc(OC)c2)n1 the results were NPYLR7 agonist -5.7 and NPYLR7 agonist max-min 3.6.
`COc1ccc(F)c(-c2nc(COc3cccnc3N)c(C)o2)c1` gave NPYLR7 agonist 2.7 and NPYLR7 agonist max-min 2.5.
For CC(C)/C=C/C(=O)N1CCC(Oc2ccc(C(=O)NC3CCCC3)cc2Cl)CC1 the results were NPYLR7 agonist 11.0 and NPYLR7 agonist max-min 3.3.
COC(=O)C1CCN(CC(O)COCc2ccc(NCc3ccc(F)cc3)cc2)CC1 (stereo unspecified) was read as NPYLR7 agonist 0.9 and NPYLR7 agonist max-min -0.3.
`CN(CC(=O)N1CCNC(=O)C1)c1ccccc1Oc1ccccc1` gave NPYLR7 agonist -0.4 and NPYLR7 agonist max-min -2.9.
Screening COc1ccc(-c2cc(CNC(=O)COc3ccccc3)no2)cc1OC returned NPYLR7 agonist 0.1 and NPYLR7 agonist max-min -1.1.
For Cc1cccc(N(CCOC(=O)c2ccc([N+](=O)[O-])c(C)c2)C2=NS(=O)(=O)c3ccccc32)c1 the results were NPYLR7 agonist 11.9 and NPYLR7 agonist max-min 11.9.
CN(Cc1cnn(C)c1)C(=O)CCS(=O)(=O)c1ccc2c(c1)OCCO2 was read as NPYLR7 agonist 7.0 and NPYLR7 agonist max-min 4.1.
Screening O=C(Nc1ccc(OC(F)(F)F)cc1)Nc1ccc2nc([C@@H]3O[C@H](CO)[C@@H](O)[C@H](O)[C@H]3O)[nH]c2c1 returned NPYLR7 agonist -1.7 and NPYLR7 agonist max-min 19.6.
`Oc1oc(-c2cccc3ccccc23)nc1C=Nc1ccccc1I` gave NPYLR7 agonist -4.7 and NPYLR7 agonist max-min -10.0.
Cc1ccc(Cn2c(=O)c3ccccc3n(Cc3nc(-c4ccccc4C)no3)c2=O)cc1 was read as NPYLR7 agonist -2.3 and NPYLR7 agonist max-min -3.4.
O=C(Cc1ccccc1)Nc1ccnn1C1CCN(Cc2cccn2-c2nccs2)CC1 was read as NPYLR7 agonist 4.9 and NPYLR7 agonist max-min 2.2.
`CC(Oc1ccccc1C#N)C(=O)NCC1CCCCC1` (stereo unspecified) gave NPYLR7 agonist -0.4 and NPYLR7 agonist max-min -1.5.
`O=C(COc1coc(CN2CCc3ccccc32)cc1=O)c1ccc(Cl)cc1` gave NPYLR7 agonist -1.6 and NPYLR7 agonist max-min 24.7.
`O=C(c1cnn2ccccc12)N1CCC(n2cc(-c3ccccn3)nn2)CC1` gave NPYLR7 agonist 4.4 and NPYLR7 agonist max-min 2.1.
CC(C)(C)OC(=O)NC1(C(=O)O)CCCCC1 was read as NPYLR7 agonist -1.8 and NPYLR7 agonist max-min -3.9.
`Cc1onc(-c2ccccc2)c1CNC(=O)c1cncn1-c1cccc(-c2cccc3c2sc2ccccc23)c1` gave NPYLR7 agonist 4.8 and NPYLR7 agonist max-min 5.1.
`Cc1nn(CCCC(=O)NCC2CCCO2)c(=O)c2nccn12` (stereo unspecified) gave NPYLR7 agonist 4.8 and NPYLR7 agonist max-min 2.7.

Taken from the listing, 2 compounds:
`Cc1onc(-c2ccccc2)c1CNC(=O)c1cncn1-c1cccc(-c2cccc3c2sc2ccccc23)c1` gave NPYLR7 agonist 4.8 and NPYLR7 agonist max-min 5.1.
`Cc1nn(CCCC(=O)NCC2CCCO2)c(=O)c2nccn12` (stereo unspecified) gave NPYLR7 agonist 4.8 and NPYLR7 agonist max-min 2.7.

Other records.
CC(NC(C)(C)CNS(=O)(=O)c1cnn(C)c1)c1ccccc1 (stereo unspecified) was read as NPYLR7 agonist -3.2 and NPYLR7 agonist max-min -2.2.
`COC1CCCN(C(=O)c2cn(CCCc3ccccc3)nn2)C1` (stereo unspecified) gave NPYLR7 agonist 3.1 and NPYLR7 agonist max-min -5.0.
`CN(C)S(=O)(=O)c1c(C(C)(C)C)cc(C(C)(C)C)cc1C(C)(C)C` gave NPYLR7 agonist 6.4 and NPYLR7 agonist max-min 9.1.
`CSc1ccccc1NC(=O)CN(C)Cc1ccc(-n2cccn2)cc1` gave NPYLR7 agonist 15.5 and NPYLR7 agonist max-min 8.7.
`COCCN(CC(=O)N(Cc1ccc(F)cc1)Cc1sccc1C)C(=O)Nc1ccc(Cl)cc1Cl` gave NPYLR7 agonist 21.3 and NPYLR7 agonist max-min 26.8.
`Cc1nn(C)cc1C(=O)N1CCC(=O)N(Cc2ccc(F)cc2)C(C(C)C)C1` (stereo unspecified) gave NPYLR7 agonist -1.4 and NPYLR7 agonist max-min -1.7.
Screening O=C(Nc1ncc(Cc2ccc(Cl)cc2)s1)c1cccs1 returned NPYLR7 agonist -1.5 and NPYLR7 agonist max-min -0.5.
`CC(=O)Nc1ccc(SCCCC(=O)N2c3ccc(F)cc3CCC2C)nn1` (stereo unspecified) gave NPYLR7 agonist -0.6 and NPYLR7 agonist max-min 0.8.
O=C(C(Cl)Cl)N1CCc2nc(Cc3cccc(F)c3)nc(N3CCOCC3)c2C1 was read as NPYLR7 agonist -4.2 and NPYLR7 agonist max-min 2.7.
Screening O=C(CCc1nnc(CCc2c[nH]c3ccccc23)o1)N1CCSCC1 returned NPYLR7 agonist -4.2 and NPYLR7 agonist max-min -5.0.
N#CC1(NC(=O)c2cc(C3CC3)nc3ccc(F)cc23)CCSC1 (stereo unspecified) was read as NPYLR7 agonist 13.0 and NPYLR7 agonist max-min 9.8.
Screening c1ccc(C2=C3CCCCn4c(-c5ccccc5)c[n+](c43)C2)cc1 returned NPYLR7 agonist -0.4 and NPYLR7 agonist max-min -4.2.
`CC(c1ccccc1)n1cnc2c(nnn2-c2ccc(Br)cc2)c1=O` (stereo unspecified) gave NPYLR7 agonist -7.5 and NPYLR7 agonist max-min -12.4.
`Cc1nn(CCNC2CC(C)(C)NC(C)(C)C2)c(C)c1Cl` gave NPYLR7 agonist 8.4 and NPYLR7 agonist max-min 5.8.
Screening O=C(NCc1ccco1)N1CC[C@@H](c2ccc3ccccc3c2)[C@H](O)C1 returned NPYLR7 agonist 5.3 and NPYLR7 agonist max-min 0.1.
`CCCCn1c(=O)c2oc3ccccc3c2n(CC(=O)Nc2cccc(Cl)c2C)c1=O` gave NPYLR7 agonist 2.0 and NPYLR7 agonist max-min 1.3.
Screening Cn1c(=O)c(Sc2ccccc2)c(Cl)c2ccccc21 returned NPYLR7 agonist 4.6 and NPYLR7 agonist max-min 8.9.
`O=C(NCc1cccnc1N1CCCC(O)C1)c1ccccn1` (stereo unspecified) gave NPYLR7 agonist 18.3 and NPYLR7 agonist max-min 11.4.
For CC(=O)Nc1ccc(NC(=O)CSc2nc(C(F)(F)F)cc(=O)[nH]2)cc1 the results were NPYLR7 agonist -2.1 and NPYLR7 agonist max-min -1.5.
Screening CCCCCc1ccc(C(=O)N(CCCOCC)CC(=O)N2CCc3sccc3C2c2ccc(Cl)cc2Cl)cc1 (stereo unspecified) returned NPYLR7 agonist 12.3 and NPYLR7 agonist max-min 16.1.
CC(C)Cc1nc2c(Cl)cc(Cl)cn2c1NC1CCCCC1 was read as NPYLR7 agonist 19.9 and NPYLR7 agonist max-min 25.3.
CCc1nsc(NC(=O)C2(C)CCCN(C)C2)n1 (stereo unspecified) was read as NPYLR7 agonist -1.6 and NPYLR7 agonist max-min -1.4.

Bioassay records: PubChem, Fisher Drug Discovery Resource Center
